# HSV augment: enhancers of HSV replication in host cells, fold increase, host cell viability | HSV replication augmentation in cells | maximum fold increase | 220,000 tested, 0.005% active | AID 1956, 2009;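 active = peak rise of 1.5-fold or more in the series; inconclusive = self-fluorescent or not available for retest; tested in PC3 cells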;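 also: first round at 10 µM; read as green reporter fluorescence; hits show the peak of a series up to 25 µM; 1 = signal of infected wells without compound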
# GALR2 ag: GALR2 receptor agonists, primary screen, cell-based; activation, %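 (tested at 5 µM)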; Galanin receptor type 2 (Homo sapiens), O43603; 140,000 tested, 0.48% active; AID 803, 2007; GALR2-expressing cells, agonist activation read-out;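 active = above mean plus 3 SD of all compounds, about 5% in these data, not always enough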;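 also: 0% = vehicle buffer wells and 100% = reference agonist at full effect; tested in CHO reporter cells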
# Target sequence (O43603 whole entry, looked up): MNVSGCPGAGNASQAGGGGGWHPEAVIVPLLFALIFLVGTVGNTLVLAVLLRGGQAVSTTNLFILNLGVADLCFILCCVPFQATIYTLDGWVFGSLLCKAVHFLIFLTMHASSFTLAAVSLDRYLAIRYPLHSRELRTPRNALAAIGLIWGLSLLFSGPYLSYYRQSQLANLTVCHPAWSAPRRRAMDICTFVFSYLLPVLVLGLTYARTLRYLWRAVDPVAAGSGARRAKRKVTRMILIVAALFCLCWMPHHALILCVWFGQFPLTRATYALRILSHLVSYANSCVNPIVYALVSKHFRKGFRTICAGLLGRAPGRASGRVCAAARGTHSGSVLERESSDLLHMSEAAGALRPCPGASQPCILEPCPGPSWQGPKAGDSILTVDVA
# INS promoter inh: inhibitors of insulin promoter-driven GFP, primary screen, imaging, TRM-6 cells (human fetal islet line), eGFP reporter, cell count; reporter expression induced with tamoxifen; 130,000 tested, 0.9% active; inhibition, % at 2 µM;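 active = inhibition above the mean plus 3 SD, with well images judged a real hit on visual review, cut at about 60% in these data, passing the limit was not always enough; inconclusive = inhibition over the cutoff but images rejected on review; inactive = inhibition not above the cutoff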
# RGS16-Gao: modulators of RGS16 binding to Galphao, primary screen, biochemical, human proteins, multiplexed bead flow cytometry; Regulator of G-protein signaling 16 (Homo sapiens) + Guanine nucleotide-binding protein …; 220,000 tested, 0.38% active; bead-based flow cytometry RGS16-Galphao binding, fluorescence; actives lie on both sides; binding response (% of control), % at 10 µM;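 active = below 25% or above 175%, edge rows of some plates excepted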;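 also: Galphao activated by GDP with aluminum fluoride before binding; 100% = wells without compound and 0% = beads without RGS; some results beyond the cut were filed as inactive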
# Target sequence (O15492 whole entry, looked up): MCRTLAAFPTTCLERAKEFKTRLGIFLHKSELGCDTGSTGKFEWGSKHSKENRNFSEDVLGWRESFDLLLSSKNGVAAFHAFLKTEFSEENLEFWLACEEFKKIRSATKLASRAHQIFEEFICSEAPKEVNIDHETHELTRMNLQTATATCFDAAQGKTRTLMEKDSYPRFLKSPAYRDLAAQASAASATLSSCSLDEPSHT
# Target sequence (P09471 whole entry, looked up): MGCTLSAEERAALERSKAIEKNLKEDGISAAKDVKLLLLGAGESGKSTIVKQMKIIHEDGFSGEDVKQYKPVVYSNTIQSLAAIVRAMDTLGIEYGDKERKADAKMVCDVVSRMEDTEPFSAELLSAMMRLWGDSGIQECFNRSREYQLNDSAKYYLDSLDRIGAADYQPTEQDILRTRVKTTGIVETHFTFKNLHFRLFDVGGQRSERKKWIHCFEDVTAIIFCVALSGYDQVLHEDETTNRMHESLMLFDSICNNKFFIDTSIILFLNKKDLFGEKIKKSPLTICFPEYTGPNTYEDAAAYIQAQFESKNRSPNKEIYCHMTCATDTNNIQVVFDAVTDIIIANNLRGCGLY
# PKD1 kinase inh: inhibitors of human PKD1 kinase, biochemical, fluorescence polarization | Serine/threonine-protein kinase D1 (Homo sapiens), Q15139 | PKD1 kinase fluorescence polarization assay | inhibition, %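 (about 10 µM by stock and volumes)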 | 200,000 tested, 0.056% active | AID 797, 2007;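 active = inhibition of 50% or more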;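 also: controls were vehicle for no effect and a reference inhibitor for full effect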
# INS promoter inh cell count: further read-out of INS promoter inh, marked with its call; normalized cell count, %; measured here: cell count, toxicity; reference of the scale not given here;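 cells exposed to compound for 48 h; stained nuclei by imaging scaled within each plate; lower means fewer cells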
# HSV augment primary fold: recorded beside HSV augment, whose call it bears; fold increase; compound at 10 µM; measured here: primary screen fold increase 10 uM; tested in PC3 cells;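 GFP signal in the first replicate; 1 = infected wells without compound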
# * marks the source's active call; other numbers are inactive results; i = inactive; ? = inconclusive; . = no result given.
SMILES,HSV augment,HSV augment primary fold,GALR2 ag,INS promoter inh,INS promoter inh cell count,RGS16-Gao,PKD1 kinase inh
Cc1ccc(N(CC(=O)NC(C)c2ccccc2)S(=O)(=O)c2cccs2)cc1 (centres undefined),i,0.89,-1.6,-10,90,94,-6
COc1ccc(Cn2cnc3c(N)c(C)c(C)cc32)cc1,i,0.86,.,-14,132,96,6
O=C(COC(=O)c1cc(S(=O)(=O)N2CCOCC2)ccc1O)Nc1cc(S(=O)(=O)N2CCCC2)ccc1Cl,i,0.99,.,.,.,105,.
O=C(NCc1ccccc1)C1=C[C@H](c2csc3ccccc23)C[C@H](OCCCCO)O1,i,0.98,.,.,.,101,5
CCOC(=O)c1ccc(N=c2scc(C)n2CC)cc1,i,1.2,.,.,.,97,-12
Cc1cccc(NC(=O)N2CCN(Cc3ccc4c(c3)OCO4)CC2)c1C,i,0.83,.,.,.,100,2
CC(NC(=O)c1ccc(Br)cc1)c1ccc2c(c1)CCCC2 (centres undefined),i,0.94,-0.6,9,61,98,-3
CCc1ccc(NC(=S)NNC(=O)c2ccccc2OC(F)F)cc1,i,0.77,0.7,-3,80,99,-3
O=S(=O)(NCc1ccc(F)cc1)c1cccc(S(=O)(=O)N2CCOCC2)c1,i,1,-2.8,0,53,92,3
Cc1cccc2nc(CSCc3ccco3)cn12,i,0.94,-3.4,.,.,90,-1
O=C(Cc1csc(Nc2nc(=S)[nH]c3ccccc23)n1)NCc1cccc(Cl)c1,.,.,-1.7,39,85,102,-16
Cc1cc(Cl)ccc1NNC(=O)CCc1ccccc1,i,0.96,.,.,.,95,.
CCOC(=O)C1=C(C)OC(N)=C(C(=O)OCC)C1c1cccnc1 (centres undefined),i,0.97,-2.3,.,.,67,-4
Cc1ccc(C)c(S(=O)(=O)N2CCN(CC(=O)Nc3ccc([N+](=O)[O-])cc3)CC2)c1,i,0.98,-0.4,-8,131,106,-2
Cc1ccc([N+](=O)[O-])cc1S(=O)(=O)N1CCC(C)CC1,i,1,.,.,.,101,-8
Cc1ccccc1NC(=O)NCCN1C(=O)C2C3C=CC(C3)C2C1=O (centres undefined),i,1.1,-1.5,.,.,108,-17
Cc1cc(C(=O)NCC(=O)OCC(=O)N(C2CCCCC2)C2CCCCC2)ccc1[N+](=O)[O-],i,0.97,-0.1,16,125,105,-4
CCn1c(CSc2nc(C)cc(C)n2)nnc1SCC(=O)Nc1cccc2ccccc12,i,0.99,0.0,-62,73,99,-2
COc1cccc(NC(=O)COC(=O)c2nc3nccc(C)n3n2)c1,i,0.87,-0.8,6,112,101,-9
CC(=O)c1c(C)[nH]c(C(=O)NC2CCCCC2)c1C,.,.,-0.7,.,.,101,1
O=C(O)CC1(c2ccccc2)C(=O)c2ccccc2C1=O,i,0.91,10*,-9,89,71,-1
CCN(CC)CCCNC(=O)C1CCC(=O)N(c2ccc(OC)cc2)C1c1ccc(F)cc1 (centres undefined),i,1,0.1,.,.,98,1
Cc1ccccc1-c1nc(CS(=O)CC(=O)NCCN2CCN(Cc3ccccc3)CC2)c(C)o1 (centres undefined),i,0.89,-2.3,-21,105,99,-7
Cc1cc(NC(=O)C2C3C(=O)N(Cc4ccc(Cl)cc4)C(C(=O)NCc4ccccc4)C34C=CC2(C)O4)no1 (centres undefined),i,0.96,-1.2,-3,96,99,-4
Cc1ccc(OCC(=O)NCc2ccccn2)c(Br)c1,i,0.97,-0.6,.,.,96,-11
O=C(Oc1c(-c2ccco2)oc2ccccc2c1=O)c1cccnc1,?,.,.,.,.,90,-5
CN(C)c1nc(NCc2ccccc2)nc(N/N=C/c2ccc3c(c2)OCO3)n1,i,0.81,-0.6,12,123,128,-10
CC(C)CC(NC(N)=O)C(=O)Nc1cccc([N+](=O)[O-])c1 (centres undefined),i,1,.,.,.,101,-1
Fc1ccc(NC(=S)NN=C2CCCCCC2)cc1,i,1.2,-1.4,-41,223,97,-3
Cc1ccn2c(Nc3ccccc3C)c(-c3ccccn3)nc2c1,i,0.7,.,7,162,102,-1
Cc1ccn2cc(CNS(=O)(=O)c3ccc4c(c3)OCCO4)nc2c1,i,0.78,-2.5,.,.,102,18
Cc1cc(N2CCC(C(=O)N3CCN(c4cccc(C)c4C)CC3)CC2)n2ncnc2n1,i,1,-3.1,.,.,74,-4
Cc1cc(NC(=O)Cn2c(=O)c3c(ncn3CC(C)C)n(Cc3ccccc3)c2=O)no1,i,1,-1.1,4,84,42,2
Clc1ccc(/C=N/Nc2ccccn2)cc1,i,1.1,.,50,107,105,-3
O=C(CNCc1cccc2ccccc12)Nc1ccccc1[N+](=O)[O-],i,0.98,.,.,.,98,-4
Cc1cccc(N2CCN(C(=O)CN3C(=O)C4CC=CCC4C3=O)CC2)c1C (centres undefined),i,1,.,0,50,56,0

# In a second layout: entries from further up
smiles	HSV augment	HSV augment primary fold	GALR2 ag	INS promoter inh	INS promoter inh cell count	RGS16-Gao	PKD1 kinase inh
Cc1ccc(N(CC(=O)NC(C)c2ccccc2)S(=O)(=O)c2cccs2)cc1 (centres undefined)	i	0.89	-1.6	-10	90	94	-6
COc1ccc(Cn2cnc3c(N)c(C)c(C)cc32)cc1	i	0.86	.	-14	132	96	6
O=C(COC(=O)c1cc(S(=O)(=O)N2CCOCC2)ccc1O)Nc1cc(S(=O)(=O)N2CCCC2)ccc1Cl	i	0.99	.	.	.	105	.
O=C(NCc1ccccc1)C1=C[C@H](c2csc3ccccc23)C[C@H](OCCCCO)O1	i	0.98	.	.	.	101	5
CCOC(=O)c1ccc(N=c2scc(C)n2CC)cc1	i	1.2	.	.	.	97	-12
Cc1cccc(NC(=O)N2CCN(Cc3ccc4c(c3)OCO4)CC2)c1C	i	0.83	.	.	.	100	2
CC(NC(=O)c1ccc(Br)cc1)c1ccc2c(c1)CCCC2 (centres undefined)	i	0.94	-0.6	9	61	98	-3
CCc1ccc(NC(=S)NNC(=O)c2ccccc2OC(F)F)cc1	i	0.77	0.7	-3	80	99	-3
O=S(=O)(NCc1ccc(F)cc1)c1cccc(S(=O)(=O)N2CCOCC2)c1	i	1	-2.8	0	53	92	3
Cc1cccc2nc(CSCc3ccco3)cn12	i	0.94	-3.4	.	.	90	-1
O=C(Cc1csc(Nc2nc(=S)[nH]c3ccccc23)n1)NCc1cccc(Cl)c1	.	.	-1.7	39	85	102	-16
Cc1cc(Cl)ccc1NNC(=O)CCc1ccccc1	i	0.96	.	.	.	95	.
CCOC(=O)C1=C(C)OC(N)=C(C(=O)OCC)C1c1cccnc1 (centres undefined)	i	0.97	-2.3	.	.	67	-4
Cc1ccc(C)c(S(=O)(=O)N2CCN(CC(=O)Nc3ccc([N+](=O)[O-])cc3)CC2)c1	i	0.98	-0.4	-8	131	106	-2
Cc1ccc([N+](=O)[O-])cc1S(=O)(=O)N1CCC(C)CC1	i	1	.	.	.	101	-8
Cc1ccccc1NC(=O)NCCN1C(=O)C2C3C=CC(C3)C2C1=O (centres undefined)	i	1.1	-1.5	.	.	108	-17
Cc1cc(C(=O)NCC(=O)OCC(=O)N(C2CCCCC2)C2CCCCC2)ccc1[N+](=O)[O-]	i	0.97	-0.1	16	125	105	-4
CCn1c(CSc2nc(C)cc(C)n2)nnc1SCC(=O)Nc1cccc2ccccc12	i	0.99	0.0	-62	73	99	-2
COc1cccc(NC(=O)COC(=O)c2nc3nccc(C)n3n2)c1	i	0.87	-0.8	6	112	101	-9
CC(=O)c1c(C)[nH]c(C(=O)NC2CCCCC2)c1C	.	.	-0.7	.	.	101	1
O=C(O)CC1(c2ccccc2)C(=O)c2ccccc2C1=O	i	0.91	10*	-9	89	71	-1
CCN(CC)CCCNC(=O)C1CCC(=O)N(c2ccc(OC)cc2)C1c1ccc(F)cc1 (centres undefined)	i	1	0.1	.	.	98	1

# Other results follow.
SMILES,HSV augment,HSV augment primary fold,GALR2 ag,INS promoter inh,INS promoter inh cell count,RGS16-Gao,PKD1 kinase inh
COc1cc(S(=O)(=O)N2CCN(c3ccccc3F)CC2)c(OC)cc1Cl,i,1,-1.6,-109,85,104,-7
C=CCn1c(SCc2nc(N)nc(N3CCCCC3)n2)nnc1-c1ccco1,i,0.91,-0.9,.,.,103,-4
COc1ccc(/C=C(\C#N)C(=O)Nc2cccc3ncccc23)cc1OC,i,0.95,.,.,.,94,.
CCc1ccc2c(c1)C(c1ccc([N+](=O)[O-])cc1)=NNC(c1ccc(C)cc1)=N2,i,0.78,-1.1,-12,95,117,-1
Cn1cccc1/C=N/n1c(-c2ccc(Cl)cc2Cl)n[nH]c1=S,i,0.96,0.1,33,115,94,-14
CC(Sc1nnnn1C)C(=O)Nc1ccc(N2CCOCC2)cc1 (centres undefined),i,0.99,-1.4,6,106,98,5
COC(=O)c1c(C)[nH]c(-c2csc(N)n2)c1C,i,0.75,.,-89,54,102,-4
O=C1c2ccccc2C(Nc2ccc3c(c2)OCCO3)N1Cc1ccco1 (centres undefined),i,1.2,-0.5,.,.,102,-3
Brc1ccc(-c2cnco2)cc1,i,0.88,.,.,.,102,0
CCC(=O)Oc1ccc(C/C(=N\O)c2ccc(O)cc2O)o1,i,0.94,0.6,41,56,81,-5
N#CC1=C(N)NC(SCc2ccc(Br)cc2)=C(C#N)C12CCCCC2,.,.,-1.2,-30,117,107,-4
Nc1nc(-c2ccco2)cs1,i,1.3,-4.8,.,.,99,5
COc1ccc(C2C(C#N)=C(C)NC3=C2C(=O)CC(C)(C)C3)cc1 (centres undefined),i,0.96,-1.4,60,54,97,-1
COC(=O)NC1(C(F)(F)F)C(=O)NC(C)=C1C(=O)OC (centres undefined),i,0.95,-2.0,-235,89,103,2
O=C(NC(=S)Nc1ccc(Cl)cc1)c1ccccc1,i,1.2,.,.,.,98,.
Oc1ccc(Br)cc1-c1cc(-c2ccco2)[nH]n1,i,1.1,-2.3,17,124,92,-6
COC(=O)c1nn(-c2nc(-c3ccc(OC)c(OC)c3)cc(C(F)(F)F)n2)cc1[N+](=O)[O-],i,0.91,.,.,.,102,-1
CC1CC(NC(=O)CCn2c(=O)oc3ccccc32)CC(C)(C)C1 (centres undefined),i,1,-2.3,.,.,103,-5
CCOC(=O)C(=CNc1cccnc1Oc1ccc(C)c2c1CCC2)C(=O)OCC,i,0.93,.,.,.,98,.
COc1ccc(-c2nn(C)c(=O)c3ccccc23)cc1CNC(=O)c1ccco1,i,0.91,0.8,-39,110,64,2
CC(=O)n1cc(N(C(=O)CCl)c2ccccc2)c2ccccc21,i,0.74,.,.,.,97,.
FC(F)(F)c1cc(Oc2ccc(Cl)cc2)nc(-c2ccccn2)n1,i,0.7,-2.6,14,121,104,6
CC(C)(C)c1[nH]nc2c1C(c1ccoc1)C(C#N)=C(N)O2 (centres undefined),i,0.9,-1.3,30,122,97,3
Cc1ccc(CNC(=O)C2CC3Cn4c(nc5cc(Cl)c(Cl)cc54)C3N2C)o1 (centres undefined),i,0.92,.,.,.,100,.
CN1C(=O)N(C)C2(c3ccccc3)NNC(N)=NC12c1ccccc1 (centres undefined),i,1,.,.,.,111,.
COc1ccc(NC(=O)CCC(=O)OC(C(=O)c2ccccc2)c2ccccc2)cc1 (centres undefined),i,0.91,-3.1,.,.,101,-4
CC(=O)c1cccc(NC(=O)N2CCCC2C(=O)Nc2ccc3c(c2)OCO3)c1 (centres undefined),i,0.99,.,.,.,97,3

# Assay outcomes as filed in PubChem.
